Assay outcomes (PubChem BioAssay)
rRNA inh HTS = inhibitors of bacterial rRNA selective over humanized ribosomes | AID 720706 | 1.6% of 350,000 active | GFP signal change (wild-type ribosome), % (concentration not given with the values) | E. coli WT GFP vs humanized-ribosome RFP mutants, fluorescence, 24 h; hits give low values; DMSO median 0, no signal -100;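 active means significant combined selectivity score with lowered wild-type GFP, culture density cut under 30%, mutant RFP and density less affected; inactive means any of these conditions unmet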; further: one replicate is shown; some compounds called inactive have numbers as strong as hits
FGF22 binding = shifts melting point of recombinant human FGF22; Q9HCT0; recombinant FGF22 thermal shift, SYPRO orange fluorescence; percent of sucrose octasulfate shift, DMSO zero; calls only at 9.99 µM; 1.5% of 340,000 active; AID 651658;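 active means melting point raised past a set limit in the mean and every replicate; inconclusive means no clear call; three in four hits are not shown here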
Target sequence (Q9HCT0 whole entry, looked up): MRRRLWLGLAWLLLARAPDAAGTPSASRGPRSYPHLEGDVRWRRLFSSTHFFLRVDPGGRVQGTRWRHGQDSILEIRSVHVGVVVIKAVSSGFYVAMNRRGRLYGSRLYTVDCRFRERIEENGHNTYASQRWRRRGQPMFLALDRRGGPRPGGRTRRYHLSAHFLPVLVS
RanGTP-Imp inh = inhibitors of RanGTP-importin-beta interaction, primary screen, biochemical, FRET, CFP-Ran, YFP-importin-beta, homogeneous | cell-free CFP-Ran/YFP-importin-beta FRET ratio | inhibition, % (no concentration beside the values) | 1.1% of 300,000 active | AID 2216;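 active means most replicates above 15%; inconclusive means exactly half above 15%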;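 further: 0% = DMSO wells and 100% = Ran loaded with GDP instead of GTP; wells of about 40 µL received 100 nL stock; the first replicate is given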
Calb FLC = C. albicans growth modulation with fluconazole; 0.57% of 300,000 active; C. albicans CaCi-2 (fluconazole-resistant clinical isolate) + fluconazole, Alamar Blue growth, 48 h; growth inhibition, % (concentration not given with the values); AID 1979;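 active means most replicates above 75%; inconclusive means exactly half above 75%; inactive means most below 75%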;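 further: all wells also contain fluconazole at 8 µg/ml as a sub-toxic cotreatment; 0% = median of DMSO wells and 100% = median of geldanamycin control wells; wells of about 8 µL received 7.5 nL stock; the first replicate is given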
ALR H2O2 inh = blocks human ALR sulfhydryl oxidase activity; P55789; purified ALR, DTT oxidation, H2O2 HRP-luminol luminescence; inhibition, % (no concentration beside the values); 3.8% of 290,000 active; AID 485317;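 active means mean and each replicate at 75% or more; inconclusive means only one of the two met; inactive means neither met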;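 further: stock transfer was 7.5 nL into about 7.5 µL; 0% = neutral wells and 100% = wells with inactivated enzyme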
Target sequence (P55789 whole entry, looked up): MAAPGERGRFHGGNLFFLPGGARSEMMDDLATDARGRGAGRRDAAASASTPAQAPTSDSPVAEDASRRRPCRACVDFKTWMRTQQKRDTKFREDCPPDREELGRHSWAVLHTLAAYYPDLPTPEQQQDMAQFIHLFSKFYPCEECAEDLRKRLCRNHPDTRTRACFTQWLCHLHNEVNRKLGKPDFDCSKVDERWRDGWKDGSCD
AF4-AF9 inh = MLL-AF4/AF9 protein interaction inhibition; P42568; AlphaScreen, biotin-AF4 peptide binding to FLAG-AF9; AID 651704; inhibition, % at 10 µM; 0.47% of 350,000 active;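 active means every replicate reaching a set inhibition limit, whatever the replicate mean, cut at about 25% in these data; inconclusive means mean inhibition reaches that limit but some replicates miss it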;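 further: 0% = plate neutral control median and 100% = total signal loss; the record names both 10 and 1 µM as test concentration; the first replicate is given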
Target sequence (P42568 whole entry, looked up): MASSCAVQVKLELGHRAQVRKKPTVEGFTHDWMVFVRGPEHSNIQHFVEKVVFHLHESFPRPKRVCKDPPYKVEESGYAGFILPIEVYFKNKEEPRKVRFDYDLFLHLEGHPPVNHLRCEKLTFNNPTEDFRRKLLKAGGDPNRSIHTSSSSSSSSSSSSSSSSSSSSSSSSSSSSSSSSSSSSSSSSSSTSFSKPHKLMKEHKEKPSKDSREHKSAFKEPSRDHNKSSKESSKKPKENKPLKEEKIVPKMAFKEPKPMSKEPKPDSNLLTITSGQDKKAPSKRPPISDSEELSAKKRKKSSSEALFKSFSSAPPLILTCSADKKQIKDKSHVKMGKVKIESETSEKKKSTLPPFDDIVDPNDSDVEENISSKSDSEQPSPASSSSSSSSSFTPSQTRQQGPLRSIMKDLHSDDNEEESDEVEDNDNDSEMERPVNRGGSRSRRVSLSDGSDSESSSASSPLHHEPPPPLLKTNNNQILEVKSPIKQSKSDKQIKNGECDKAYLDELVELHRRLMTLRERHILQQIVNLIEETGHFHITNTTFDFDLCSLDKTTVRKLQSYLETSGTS
Beta apoptosis = beta cell apoptosis inhibition; AID 435005; INS-1E cytokine-induced death, ATP luminescence, 48 h; percent of positive-control rescue, neutral wells zero; 0.8% of 300,000 active; protection from apoptosis, % (no concentration beside the values);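 active means all replicates at 75% or more, or half of them and the mean; inconclusive means half reach 75% but not the mean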;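 further: 0% = cytokine-treated negative control wells and 100% = positive control rescue; higher means more ATP so stronger rescue from cytokine killing; wells of about 40 µL received 100 nL stock; the first replicate is given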
T cruzi inh = blocks replication of Trypanosoma cruzi; 1.4% of 300,000 active; T. cruzi beta-gal in NIH3T3, luminescence, 90 h; inhibition, % (no concentration beside the values);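 active means mean inhibition across valid replicates above about 55%, limit read from the data; inconclusive means mean below that limit but half or more replicates reach it; inactive means mean below it, under half of replicates reach it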;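 further: signal also drops with host cell toxicity which is not excluded here; 0% = plate median of DMSO wells and 100% = zero luminescence signal; higher percent means less beta-gal luminescence so fewer parasites; stock transfer was 50 nL into about 50 µL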
rRNA inh HTS OD600 = second read-out of rRNA inh HTS, no call of its own (marks repeat the call); OD600 change, %; measured here: OD600 growth;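 optical density of the mix in the first replicate; 0 = DMSO median and -100 = no signal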
rRNA inh HTS RFP = second read-out of rRNA inh HTS, no call of its own (marks repeat the call); RFP signal change, %; measured here: RFP humanized mutant strains;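 first replicate; 0 = DMSO median and -100 = no signal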
* hit, by the source's call; i = inactive; ? = inconclusive; . = no result given; & = joins results of further samples. Not all compounds are listed, so the mix of outcomes need not match the whole.

SMILES | rRNA inh HTS | rRNA inh HTS OD600 | rRNA inh HTS RFP | FGF22 binding | RanGTP-Imp inh | Calb FLC | ALR H2O2 inh | AF4-AF9 inh | Beta apoptosis | T cruzi inh
Cc1cc(-n2c(SCC(=O)NCc3cccs3)nc3n[nH]c(C)c3c2=N)ccc1Cl | . | . | . | . | -2.8 | -10 | -11 | . | 31 | 32
CCNC(=O)c1ccccc1NC(=O)c1cccc(S(=O)(=O)N2CCC(C)CC2)c1 | . | . | . | . | 6.6 | 38 | -21 | . | 9 | 29
COc1ccc(S(=O)(=O)N2CCCCCC2)cc1NC(=O)CN(C)Cc1ccc2c(c1)OCO2 | -10 | -14 | 1.3 | i | . | . | . | -0.1 | 37 | .
COc1cc(SC)ccc1C(=O)Nc1ccon1 | . | . | . | . | 2.6 | 11 | . | . | 1 | -11
COc1ccccc1C(=O)Nc1ncc2c(n1)CC(c1ccco1)CC2=O (stereo not drawn) | -9 | -9 | 6.6 | i | 2.0 | -6 | -6 | 3.1 | -2 | 17
COCCN(C/C=C/c1ccccc1)C/C=C/c1ccccc1 | -17 | -18 | 2.6 | i | -5.5 | -9 | -7 | 6.7 | -1 | 22
O=C(CSc1nnc(CCc2nc3ccccc3[nH]2)n1-c1ccccc1)NCc1ccccc1 | . | . | . | . | -0.6 | 24 | -8 | . | 0 | 6
COc1ccc(-n2nnnc2SCC(=O)N2CCCc3ccccc32)cc1OC | . | . | . | . | 1.3 | 36 | -11 | . | -1 | -10
Cc1ccc(S(=O)(=O)N2c3ccccc3CC2C)cc1 (stereo not drawn) | -49 | -50 | -11 | . | -1.0 | 5 | -3 | -0.8 | -5 | -4
O=C(CN(c1ccccn1)S(=O)(=O)c1ccccc1)Nc1ccccc1 | 8 | 10 | -0.8 | i | 0.9 | -7 | -9 | -1.1 | -1 | 0
Brc1ccc(CSc2ncn[nH]2)cc1 | . | . | . | . | 1.2 | 1 | -1 | . | -7 | -16
CN(C)c1ccc(C(=O)c2ccccc2C(=O)O)c(O)c1 | . | . | . | . | 1.7 | -6 | -6 | . | 1 | -4
CC(=O)Nc1nc(CC(=O)c2ccccc2)cs1 | -1 | -3 | 0.0 | i | 6.7 | 0 | 4 | 6.9 | . | -3
Cc1ccc(S(=O)(=O)N2CCC(C(=O)N[C@@H](C)C(=O)Nc3ccc4c(c3)OCO4)CC2)cc1 | . | . | . | . | ? | -4 | -14 | . | 5 | -5
C=C1CCC[C@]2(C)C[C@H]3OC(=O)C(CNC(C)CCCC(C)C)[C@H]3CC12 (stereo partly drawn) | 2 | -11 | -0.6 | i | -3.7 | -11 | -13 | -8.7 | 11 | 25
COc1ccc(N(CC(=O)NCCc2ccc(S(N)(=O)=O)cc2)S(=O)(=O)c2c(C)noc2C)cc1 | 0 | -3 | -0.6 | i | -3.3 | -5 | -3 | 0.3 | -6 | 7
CC1CCCCN1CCCNc1ccc(C(CC(N)=O)NC(=O)Cc2ccc(Cl)cc2)cc1[N+](=O)[O-] (stereo not drawn) | 0 | 3 | 3.8 | i | -2.1 | -10 | -7 | 5.8 | 7 | -7
O=C(Nc1ccc(-c2nc3ccccc3[nH]2)cc1)c1ccc(N2C(=O)CCC2=O)cc1 | 12 | 2 | 0.6 | i | -1.8 | -1 | . | -0.5 | -5 | 2
CC(=O)Nc1nc(C)c(-c2csc(Nc3cccc(C(C)=O)c3)n2)s1 | -13 | -21 | -0.1 | i | -6.1 | -5 | -17 | 0.3 | 0 | -11
CCN(CC)CCCNC(=O)Cn1cc2c(n1)CCC(C)C2 (stereo not drawn) | 8 | 13 | 2.4 | i | 1.8 | -3 | -5 | -7.7 | -4 | -3
Cc1cccc(N2CCN(c3ccc(N4C(=O)CCCC4=O)cc3[N+](=O)[O-])CC2C)c1 (stereo not drawn) | . | . | . | . | -4.8 | -1 | 41 | . | . | 0
Clc1ccc(SCCCCN2CCNCC2)cc1 | -4 | -3 | -2.0 | i | 3.6 | ? | -4 | 6.8 | 1 | 32
O=C(NCCOc1ccccc1)c1ccc2n[nH]nc2c1 | 0 | 9 | -0.1 | i | . | . | -5 | 1.4 | -3 | .
COc1ccc(CNc2nc3ccccc3n2CCN2CCOCC2)cc1 | . | . | . | . | -4.3 | -37 | 94* | . | -3 | 2
CN1C(=O)C(C)(C)c2cc(S(=O)(=O)N3CCC(C(=O)Nc4ccc(Cl)cc4)CC3)ccc21 | 6 | 11 | 4.6 | i | -0.9 | 8 | 2 | 0.7 | -6 | 37
CC(=O)NC1=NN(C(C)=O)C(C)(c2ccc(Br)cc2)S1 (stereo not drawn) | -55 | -79 | -33 | i | 1.0 | -2 | -4 | -1.8 | -1 | 4
COc1cccc(OC)c1C(=O)Nc1ccc(S(=O)(=O)Nc2cc(C)nc(C)n2)cc1 | . | . | . | . | -4.1 | 10 | -13 | . | -12 | -9
Cc1cc(N2CCOCC2)nc2ccc(NC(=S)NCCC(C)C)cc12 | -5 | -30 | 1.0 | i | -5.8 | 10 | 68 | 7.6 | 15 | 15
CN(Cc1ccccc1)C(=O)CCSc1nc(-c2ccc3c(c2)OCO3)cc(C(F)(F)F)n1 | . | . | . | . | 1.2 | 5 | -1 | . | 4 | 41
COCCN(C(=O)COC(=O)c1cccc2ccccc12)c1c(N)n(Cc2ccccc2)c(=O)[nH]c1=O | 4 | -6 | 3.4 | i | 5.9 | 5 | -2 | -0.7 | -6 | -3

Entries of single compounds, looked up by structure. Screens in order: rRNA inh HTS	rRNA inh HTS OD600	rRNA inh HTS RFP	FGF22 binding	RanGTP-Imp inh	Calb FLC	ALR H2O2 inh	AF4-AF9 inh	Beta apoptosis	T cruzi inh
`Cc1cccc(N2CCN(c3ccc(N4C(=O)CCCC4=O)cc3[N+](=O)[O-])CC2C)c1` (stereo not drawn) is listed with .	.	.	.	-4.8	-1	41	.	.	0
`Cc1ccc(S(=O)(=O)N2c3ccccc3CC2C)cc1` (stereo not drawn) is listed with -49	-50	-11	.	-1.0	5	-3	-0.8	-5	-4
`CN1C(=O)C(C)(C)c2cc(S(=O)(=O)N3CCC(C(=O)Nc4ccc(Cl)cc4)CC3)ccc21` is listed with 6	11	4.6	i	-0.9	8	2	0.7	-6	37
`CC(=O)NC1=NN(C(C)=O)C(C)(c2ccc(Br)cc2)S1` (stereo not drawn) is listed with -55	-79	-33	i	1.0	-2	-4	-1.8	-1	4
`Cc1cc(-n2c(SCC(=O)NCc3cccs3)nc3n[nH]c(C)c3c2=N)ccc1Cl` is listed with .	.	.	.	-2.8	-10	-11	.	31	32

Next records follow.
SMILES | rRNA inh HTS | rRNA inh HTS OD600 | rRNA inh HTS RFP | FGF22 binding | RanGTP-Imp inh | Calb FLC | ALR H2O2 inh | AF4-AF9 inh | Beta apoptosis | T cruzi inh
NC(=O)C1CCN(C(=O)CCC(=O)c2ccc(F)cc2)CC1 | 15 | 18 | 0.6 | i | -1.9 | 0 | -17 | -1.7 | -1 | -1
O=C(Nc1cccc(CCc2ccccn2)c1)c1cc(F)c(F)cc1Cl | -18 | -26 | -9.9 | i | 3.2 | 8 | -12 | -15 | -3 | 10
O=S(=O)(c1ccc(OC(F)(F)F)cc1)N1CCC(O)(c2cccc(C(F)(F)F)c2)CC1 | 9 | -16 | 0.1 | i | -1.6 | -1 | -5 | -2.6 | 8 | 36
Cc1sc(NC(=S)NC(=O)c2ccc(C(C)(C)C)cc2)c(C#N)c1C | . | . | . | . | 7.2 | -5 | -9 | . | -1 | 44
CC1(C)C(=O)Nc2ccccc2N1C(=O)CN1C(=O)c2ccccc2C1=O | . | . | . | . | -1.8 | 0 | . | . | 0 | -9
Cc1ccc(C(=O)CNc2cc(C)ccc2C)cc1 | 2 | 5 | 7.2 | i | 4.0 | 13 | -7 | -0.4 | -11 | 14
O=C(CN(Cc1ccccc1Cl)C(=O)c1csnn1)NCc1ccc2c(c1)OCO2 | 0 | -5 | -1.3 | i | 2.8 | 1 | 1 | -1.9 | 0 | 9
Cc1c(C(=O)N/N=C/c2ccc(N3CCOCC3)cc2)nc2ccccn12 | -2 | 2 | -6.8 | i | 2.1 | -26 | 10 | 0.9 | 3 | -3
Cc1ccc(NNC(=O)CCc2ccccc2)c(C)c1 | 9 | 4 | 3.1 | i | 5.6 | 7 | 50 | -0.3 | -4 | -2
CCc1ccc(NC(=O)Nc2cccs2)cc1 | . | . | . | . | -7.0 | 1 | 3 | . | 1 | -3
COc1ccc(CCNC(=O)COC(=O)c2ccc(C)s2)cc1 | -4 | -4 | 0.5 | i | . | . | -3 | -3.4 | 0 | .
CC(C)(C)N(Cc1ccccc1)C(=O)COC(=O)c1ccccc1SCC(=O)N1CCCC1 | -6 | -16 | 0.9 | i | -4.7 | -14 | -4 | 1.0 | -1 | -2
Cc1cccc(NC(=O)CCC(=O)N2CCOCC2)n1 | 7 | 16 | 0.0 | i | . | . | -2 | -0.3 | 1 | .
O=C(CCC1CCCN(C(=O)CC2=CCCCC2)C1)N1CCN(c2ccccn2)CC1 (stereo not drawn) | -17 | -24 | -2.6 | i | 0.5 | -5 | 2 | -0.3 | 1 | 24
CC(C)(C)[C@H]1C=C(C(=O)NCc2ccccc2)O[C@@H](OCc2ccc(CO)cc2)C1 | -12 | -13 | -4.2 | i | 0.4 | 20 | 11 | 0.5&-1.2 | 6 | 8
O=C(CSCc1c(Cl)cccc1Cl)Nc1ccccc1-c1ccccc1 | -20 | -25 | -19 | i | -0.4 | -6 | -8 | -2.9 | -2 | 1
C#CC[N+]1(CC#Cc2ccc(C#CC[N+]3(CC#C)CCOCC3)cc2)CCOCC1 | . | . | . | . | 2.1 | -6 | -1 | . | -12 | 8
Cc1cccc(C(=O)Nc2nc3ccc(S(C)(=O)=O)cc3s2)c1 | 12 | 0 | 1.3 | i | 4.3 | 4 | -9 | -0.5 | 2 | 20
CCOC(=O)N1CCN(C(=O)c2nc3ccccc3s2)CC1 | . | . | . | . | 0.6 | 1 | -4 | . | 1 | -10
CC(C)(C)OC(=O)N1CCC(CNC(=O)c2cccs2)CC1 | -9 | -12 | -2.1 | i | 1.2 | -3 | . | 0.9 | -2 | -3
O=C(Cn1ccccc1=O)NCc1ccc(F)cc1 | 9 | 12 | -2.9 | i | -1.2 | -14 | -3 | 1.3 | 0 | -7
COc1cccc(C(=O)NNC(=O)c2ccc3ccccc3c2O)c1 | 0 | -1 | 0.5 | i | -0.5 | 102* | 21 | 0.8 | 3 | -1
CC(=O)c1ccc(NC(=O)CSc2nnc(-c3ccncc3)o2)cc1 | 4 | 6 | -2.0 | i | 3.3 | . | ? | -7.8 | -4 | -5
CCn1c(C)cc(=O)cc1-c1ccc(Cl)cc1 | 4 | 3 | 1.3 | i | 1.3 | -4 | 1 | -0.4 | -5 | 0
Cc1ccc(-c2nnc(N(C)C(=O)C3CCCO3)s2)cn1 (stereo not drawn) | . | . | . | . | -2.9 | -2 | -8 | . | 5 | -8
